# B2AR ag – human beta-2 adrenergic receptor agonism by FAP; response, % (no concentration beside the values); Am2.2-beta2AR cells, FAP receptor internalization, flow cytometry; reference of the scale not given here; 340,000 tested, 0.43% active;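 active = response above a set limit, near 3 SD of response in nonfluorescent compounds, cut at about 42% in these data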;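 also: stock transfer was 100 nL into about 11 µL; a reference agonist was the positive control; negative values mostly stem from fluorescent compounds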
# Target sequence (P07550 whole entry, looked up): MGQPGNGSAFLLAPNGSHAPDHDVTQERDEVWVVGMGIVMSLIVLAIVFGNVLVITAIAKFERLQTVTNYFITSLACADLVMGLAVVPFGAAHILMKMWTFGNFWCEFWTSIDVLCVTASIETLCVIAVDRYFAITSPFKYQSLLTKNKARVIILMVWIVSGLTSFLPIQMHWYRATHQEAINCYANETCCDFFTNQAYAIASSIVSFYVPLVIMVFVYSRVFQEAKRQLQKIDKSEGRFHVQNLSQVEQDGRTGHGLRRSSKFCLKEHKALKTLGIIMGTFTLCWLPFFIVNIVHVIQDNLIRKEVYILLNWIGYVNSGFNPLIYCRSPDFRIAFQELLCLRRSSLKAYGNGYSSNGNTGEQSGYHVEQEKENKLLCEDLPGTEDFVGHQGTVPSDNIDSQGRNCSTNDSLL
# UCH37 inh – inhibitors of human deubiquitinating enzyme UCH37 | purified proteasome/UCH37, Ub-AMC cleavage fluorescence | inhibition, % (test concentration not listed) | AID 588478 | 330,000 tested, 0.33% active;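 active = mean of two replicates above 20%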;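 also: 0% = compound-free wells with enzyme and 100% = wells lacking proteasome; stock transfer was 100 nL into about 20 µL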
# Target sequence (Q9Y5K5 whole entry, looked up): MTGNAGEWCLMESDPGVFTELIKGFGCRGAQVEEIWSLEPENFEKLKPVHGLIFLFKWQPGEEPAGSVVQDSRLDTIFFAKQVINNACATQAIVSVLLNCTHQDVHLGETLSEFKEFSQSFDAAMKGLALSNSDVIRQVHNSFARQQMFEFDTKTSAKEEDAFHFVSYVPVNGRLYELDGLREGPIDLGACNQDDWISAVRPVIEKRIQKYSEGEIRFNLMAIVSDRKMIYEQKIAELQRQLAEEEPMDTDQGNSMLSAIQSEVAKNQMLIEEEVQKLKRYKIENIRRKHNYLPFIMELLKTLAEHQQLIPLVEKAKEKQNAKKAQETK
#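 Material: human UCH37 enzyme supplied as purified proteasome complex. Measure: % inhibition of Ub-AMC cleavage fluorescence. Medium: pH 7.4 Tris-HCl (50 mM) with ovalbumin, ATP-MgCl2, DTT. Times: 30 min preincubation with enzyme, 25 min cleavage at room temperature. Detection: AMC fluorescence intensity at 355/460 nm.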
# RanGTP-Impb inh – disruptors of Ran-importin-beta complex formation – biochemical, FRET, CFP-Ran, YFP-importin-beta, homogeneous, primary screen; cell-free CFP-Ran/YFP-importin-beta FRET ratio; inhibition, % (test concentration not listed); 300,000 tested, 1.1% active;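 active = most replicates above 15%; inconclusive = exactly half above 15%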;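 also: 0% = DMSO wells and 100% = Ran loaded with GDP instead of GTP; wells of about 40 µL received 100 nL stock; the first replicate is given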
# Calb FLC – C. albicans growth modulation with fluconazole; C. albicans CaCi-2 (fluconazole-resistant clinical isolate) + fluconazole, Alamar Blue growth, 48 h; growth inhibition, % (concentration not given with the values); 300,000 tested, 0.57% active;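 active = most replicates above 75%; inconclusive = exactly half above 75%; inactive = most below 75%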;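 also: all wells also contain fluconazole at 8 µg/ml as a sub-toxic cotreatment; 0% = median of DMSO wells and 100% = median of geldanamycin control wells; wells of about 8 µL received 7.5 nL stock; the first replicate is given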
# T cruzi inh – blocks replication of Trypanosoma cruzi. AID 1885. T. cruzi beta-gal in NIH3T3, luminescence, 90 h. 300,000 tested, 1.4% active. inhibition, % (test concentration not listed);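 active = mean inhibition across valid replicates above about 55%, limit read from the data; inconclusive = mean below that limit but half or more replicates reach it; inactive = mean below it, under half of replicates reach it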;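 also: signal also drops with host cell toxicity which is not excluded here; 0% = plate median of DMSO wells and 100% = zero luminescence signal; higher percent means less beta-gal luminescence so fewer parasites; stock transfer was 50 nL into about 50 µL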
# Beta apoptosis – blocks beta cell apoptosis. 300,000 tested, 0.8% active. INS-1E cytokine-induced death, ATP luminescence, 48 h; percent of positive-control rescue, neutral wells zero. protection from apoptosis, % (test concentration not listed). AID 435005;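 active = all replicates at 75% or more, or half of them and the mean; inconclusive = half reach 75% but not the mean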;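 also: 0% = cytokine-treated negative control wells and 100% = positive control rescue; higher means more ATP so stronger rescue from cytokine killing; wells of about 40 µL received 100 nL stock; the first replicate is given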
# Bfl-1 A1 inh – inhibitors of the anti-apoptotic protein A1, read as caspase activation. MEF A1-2A-BIM cells, Caspase-Glo 3/7 luminescence, 3 h; percent of clofoctol response, vehicle zero. caspase activation, % (test concentration not listed). 330,000 tested, 0.066% active;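 active = over half of replicate activation scores above 10%, or exactly half above 10 with the replicate mean above 10; inconclusive = replicate mean below 10 yet half the replicates above 10; inactive = over half of replicates below 10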;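 also: wells of about 30 µL received 50 nL stock; many hits fall short of the cut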
# LANA-H2B inh – blocks KSHV LANA binding to histone H2A/H2B. 320,000 tested, 0.6% active. AID 2629. cell-free LANA-H2A/H2B peptide, fluorescence polarization. Q9QR71. inhibition, % (test concentration not listed); in the data active = inhibition mostly above about 10%, no sharp cut-off; inactive = mostly below about 6.7%;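 also: stock transfer was 7.5 nL into about 10 µL; 0% = median of vehicle wells and 100% = median of positive control wells; one replicate is shown; the record names a cut of 25% in any replicate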
# * marks the source's active call; other numbers are inactive results; ? = inconclusive; . = no result given.
entry	molecule	B2AR ag	UCH37 inh	RanGTP-Impb inh	Calb FLC
1	O=c1[nH]c2cc3c(cc2cc1CN(Cc1cccnc1)C(=S)NCc1ccco1)OCCO3	-2	-89	-0.9	21
2	O=C(C1=C[C@@H]2[C@H]3C(=O)N(c4ccccc4Cl)C(=O)[C@H]3[C@@H](C(=O)c3ccc(Cl)cc3)N2C=C1)c1ccccc1	.	.	6.7	-11
3	CCCCNC(=O)/C(=C/c1ccccc1)NC(C)=O	4	0.0	0.8	2
4	COc1cccc(/C=N/NC(=O)c2cccc([N+](=O)[O-])c2)c1OS(=O)(=O)c1ccc(C)cc1	9	.	2.4	2
5	CCc1ccc2nc(SCC(=O)N3CC(=O)Nc4ccccc43)c(C#N)cc2c1	-14	2.5	0.1	.
6	NS(=O)(=O)c1ccc(CNS(=O)(=O)Cc2ccc(Cl)cc2)cc1	-2	3.4	-2.1	-13
7	O=C(NCc1ccc(Cl)cc1)C(=O)Nc1nccs1	1	1.7	-1.6	-12
8	Fc1cccc(Cl)c1CSc1nnc(CNc2ccccc2)o1	-12	-1.8	-0.7	-3
9	CCOC(=O)Cc1nn(C(C)C)c(=O)c2ccccc12	-11	2.1	3.2	-5
10	COC(=O)c1cn(NC(=O)c2cnccn2)c(=O)c2ccccc12	1	1.8	-0.2	16

entry	T cruzi inh	Beta apoptosis	Bfl-1 A1 inh	LANA-H2B inh
1	12	.	1.1	-3.9
2	-10	2	-0.5	0.0
3	-24	-1	0.1	.
4	12	10	0.4	3.8
5	9	20	-0.4	1.8
6	-4	4	0.8	-1.5
7	-2	-2	-0.9	-0.3
8	-2	-10	0.1	0.4
9	-7	0	0.4	3.4
10	5	5	-0.4	-2.4

# Later entries:
entry	molecule	B2AR ag	UCH37 inh	RanGTP-Impb inh	Calb FLC
11	CCOC(=O)CC(=O)COc1nc2cc3c(nc2o1)CCCC3	19	-50	8.3	2
12	CCOC(=O)c1cnc2cc(-c3ccc(Br)cc3)nn2c1C	2	-39	-1.2	-7
13	COC(=O)c1ccc(CNC(=O)CNC(=O)c2sc3ccccc3c2Cl)cc1	13	0.2	0.5	2
14	Cc1csc(N(C(=O)c2cccc(S(=O)(=O)N3CCCC3)c2)c2ccccc2)n1	1	-1.4	1.8	-3
15	CCCCC1S/C(=N/N=C/c2cccs2)NC1=O (stereo unspecified)	-13	.	1.6	1
16	COc1ccc(NC(=O)CSC2=C(C#N)C(c3ccco3)C3=C(CCCC3=O)N2)c(OC)c1 (stereo unspecified)	2	3.0	5.5	9
17	COc1ccc(C(=O)COc2ccccc2C(N)=O)cc1	0	0.5	0.0	-8
18	Cc1ccc(NC(=O)CCNS(=O)(=O)c2ccc3c(c2)oc(=O)n3C)cc1C	-6	6.0	-0.4	?
19	C[C@H](NC(=O)c1ccco1)C(=O)NNC(=O)COc1cccc(C(F)(F)F)c1	-4	1.3	.	.
20	Cc1ccc(S(=O)(=O)CC(=O)NC(C)c2ccccc2)cc1 (stereo unspecified)	0	1.8	?	-2

entry	T cruzi inh	Beta apoptosis	Bfl-1 A1 inh	LANA-H2B inh
11	-7	12	-1.1	2.6
12	11	-2	0.2	1.0
13	5	7	0.0	.
14	8	8	-0.3	-2.5
15	-13	0	0.1	-1.3
16	11	-14	0.4	-7.9
17	-9	-4	0.1	-2.6
18	-20	-3	0.2	-0.5
19	.	-7	-0.9	1.4
20	0	-3	0.8	1.4

# More results:
entry	molecule	B2AR ag	UCH37 inh	RanGTP-Impb inh	Calb FLC
21	COc1ccc(OC)c(NC(=O)c2cc3sccc3n2C)c1	-13	-4.4	-3.7	-32
22	CC(C)Sc1nsc2nc(=O)c(/C=C3\C=Nc4ccccc43)c(N)n12	14	3.2	33*	34
23	CCOc1cccc(-c2c(C(=O)N/N=C/c3ccco3)nnn2-c2nonc2N)c1	-11	.	?	0
24	COC(=O)c1cc(C(=O)Nc2cc(C)on2)cc([N+](=O)[O-])c1	-6	1.1	4.4	1
25	COc1ccc(C)cc1NC(=O)C1CCN(S(C)(=O)=O)CC1	12	6.1	0.3	4
26	COc1ccc2c(C)cc(SCC(=O)Nc3nsc(-c4ccc(C)cc4)n3)nc2c1	2	1.2	0.3	-3
27	CCc1ccc(CN(C)CC(O)COc2cccc3ccccc23)cc1 (stereo unspecified)	10	2.7	10	10
28	Cc1ccc(OCCC(=O)OC(C)C(=O)Nc2ccc(Cl)cn2)cc1 (stereo unspecified)	1	0.4	4.5	-12
29	COc1ccc(Nc2cc3n(c(=O)n2)CCc2cc(OC)c(OC)cc2-3)c(C)c1	6	8.4	1.4	-4
30	CCOc1ccc(/C=N/n2cc(-c3ccccc3)[nH]c2=S)cc1	1	.	1.3	16

entry	T cruzi inh	Beta apoptosis	Bfl-1 A1 inh	LANA-H2B inh
21	14	0	1.7	-4.3
22	-3	2	0.6	1.4
23	-5	.	1.0	-0.8
24	6	.	0.4	2.4
25	10	-8	1.5	4.8
26	8	-1	-0.9	0.9
27	29	1	-0.8	-3.7
28	-12	5	-0.6	-0.5
29	-9	25	3.1	-8.2
30	73*	34	-1.2	0.2

# Arranged by formula weight (smallest number first): some entries from above.
entry	molecule	B2AR ag	UCH37 inh	RanGTP-Impb inh	Calb FLC
24	COC(=O)c1cc(C(=O)Nc2cc(C)on2)cc([N+](=O)[O-])c1	-6	1.1	4.4	1
21	COc1ccc(OC)c(NC(=O)c2cc3sccc3n2C)c1	-13	-4.4	-3.7	-32
20	Cc1ccc(S(=O)(=O)CC(=O)NC(C)c2ccccc2)cc1 (stereo unspecified)	0	1.8	?	-2
25	COc1ccc(C)cc1NC(=O)C1CCN(S(C)(=O)=O)CC1	12	6.1	0.3	4
28	Cc1ccc(OCCC(=O)OC(C)C(=O)Nc2ccc(Cl)cn2)cc1 (stereo unspecified)	1	0.4	4.5	-12
22	CC(C)Sc1nsc2nc(=O)c(/C=C3\C=Nc4ccccc43)c(N)n12	14	3.2	33*	34
29	COc1ccc(Nc2cc3n(c(=O)n2)CCc2cc(OC)c(OC)cc2-3)c(C)c1	6	8.4	1.4	-4
23	CCOc1cccc(-c2c(C(=O)N/N=C/c3ccco3)nnn2-c2nonc2N)c1	-11	.	?	0

entry	T cruzi inh	Beta apoptosis	Bfl-1 A1 inh	LANA-H2B inh
24	6	.	0.4	2.4
21	14	0	1.7	-4.3
20	0	-3	0.8	1.4
25	10	-8	1.5	4.8
28	-12	5	-0.6	-0.5
22	-3	2	0.6	1.4
29	-9	25	3.1	-8.2
23	-5	.	1.0	-0.8

# (continued)
entry	molecule	B2AR ag	UCH37 inh	RanGTP-Impb inh	Calb FLC
31	CCOc1ccc(NC(=O)c2cccc(OC(=S)N3CCOCC3)c2)cc1	-6	2.3	-0.2	9
32	NC(=O)c1ccc(SCC(=O)OCC(=O)N2CCN(C(=O)c3ccco3)CC2)c([N+](=O)[O-])c1	-2	-1.7	-3.7	.
33	O=C(NC1CCCCC1)c1cccnc1Sc1ccccc1Cl	1	4.8	-2.1	-4
34	O=C(Nc1cccnc1)Nc1ccccn1	-3	0.4	0.0	-1
35	Cc1c(C(=O)O)sc2nc(CSc3ncc(C(F)(F)F)cc3Cl)[nH]c(=O)c12	6	2.5	-2.1	4
36	O=C(CSc1nc2ncc(Cl)cc2[nH]1)N(Cc1ccccc1)C1CCS(=O)(=O)C1 (stereo unspecified)	-23	3.1	0.1	6
37	CC1c2[nH]c3ccccc3c2C[C@H]2C(=O)N(CCO)CC(=O)N12 (stereo partly specified)	4	2.0	-3.0	-5
38	Cc1ccc(NC(=O)CSc2nnc(N)s2)cc1S(=O)(=O)N1CCOCC1	-2	1.6	-0.3	0
39	Cc1cccnc1CN1CCN(C(=O)c2cc(COc3ccc4ncccc4c3)on2)CC1	-8	0.6	1.2	-13
40	O=C(COC(=O)c1n[nH]c2ccccc12)Nc1cccc(S(=O)(=O)N2CCOCC2)c1	-3	-1.7	-0.1	-43

entry	T cruzi inh	Beta apoptosis	Bfl-1 A1 inh	LANA-H2B inh
31	9	.	-1.1	7.9
32	-7	3	0.2	-1.9
33	-10	.	0.1	1.6
34	-12	-2	-1.6	-0.2
35	0	-5	1.4	-0.6
36	9	0	1.1	-2.2
37	-14	.	-0.2	-2.0
38	-14	2	0.8	-3.9
39	-126	100*	-0.3	-0.7
40	-5	.	.	.

# (list continues)
entry	molecule	B2AR ag	UCH37 inh	RanGTP-Impb inh	Calb FLC
41	CCc1cc(=O)oc2cc(C)cc(OC(C)C(=O)NCCCn3ccnc3)c12 (stereo unspecified)	-4	-81	-2.1	-1
42	[O-][n+]1c(/C=C/c2ccccc2)ccc2ccccc21	24	-20	-2.0	0
43	CCNc1oc(/C=C/c2ccc(OCC)cc2)nc1C#N	2	-164	3.2	13
44	CC(C)(C)OC(=O)CNC(=O)c1nc[nH]c1C(=O)N1CCN(c2ccccc2)CC1	2	1.0	-0.4	-6
45	O=C(Cn1nc(C(F)F)cc1C1CC1)NCCC1=CCCCC1	-2	0.6	?	-11
46	CN(C(=O)c1cccc(S(=O)(=O)N2CCCCC2)c1)C1CCS(=O)(=O)C1 (stereo unspecified)	-5	0.0	-0.6	-6
47	COc1ccc(C)cc1N(CC(=O)N1CCCCCC1)S(C)(=O)=O	1	0.4	1.5	1
48	O=C1c2ccccc2CCC12N=NCC2c1ccc(Br)cc1 (stereo unspecified)	26	1.7	-3.2	-1
49	COc1ccc(N(C(=O)Cc2cccs2)C2C=CS(=O)(=O)C2)cc1 (stereo unspecified)	-5	-1.9	-0.5	5
50	C/C(=N\Nc1ncnc2sc(C)c(C)c12)c1ccccn1	.	.	4.1	-13

entry	T cruzi inh	Beta apoptosis	Bfl-1 A1 inh	LANA-H2B inh
41	3	-12	-0.2	-7.3
42	-14	4	-0.5	5.8
43	-1	21	-1.4	0.3
44	-14	-1	0.2	6.5
45	26	-11	0.0	-8.0
46	-11	-4	-0.8	-2.9
47	4	-1	1.2	-4.0
48	-17	-5	0.4	-0.6
49	-2	-4	0.2	0.0
50	38	98*	-1.0	0.4

# (more compounds)
entry	molecule	B2AR ag	UCH37 inh	RanGTP-Impb inh	Calb FLC
51	Clc1cccc(OCCN2CCNCC2)c1	7	1.5	0.1	5
52	O=C1CCN(S(=O)(=O)c2ccc(Br)cc2)CCN1	3	-0.4	1.2	0
53	COc1ccccc1CNC(=O)C1CCCN(S(=O)(=O)c2cccs2)C1 (stereo unspecified)	-4	-2.3	-0.6	-3
54	Cc1cc(C)n(CC(O)COCc2ccco2)n1 (stereo unspecified)	.	4.5	-2.3	0
55	CCOC(=O)c1ccc(NC2c3ccccc3C(=O)N2c2ccccn2)cc1 (stereo unspecified)	17	5.5	-2.7	-3
56	CCOC(=O)C(=Cc1cn(C)c2ccc(S(=O)(=O)N(C)C)cc12)C(=O)OCC	8	-0.7	0.2	-6

entry	T cruzi inh	Beta apoptosis	Bfl-1 A1 inh	LANA-H2B inh
51	58*	-2	0.9	3.4
52	-8	-6	0.2	1.4
53	9	-10	0.2	-1.3
54	6	-8	-0.6	1.0
55	-39	0	.	1.0
56	12	-11	0.1	0.5
